VACV Venus inh – qHTS for Stage-Specific Inhibitors of Vaccinia Orthopoxvirus: Venus Reporter Primary qHTS; Potency, µM (doses to about 36.5 µM), inactives show at the top dose activity change, negative = inhibition, most hits filed as inhibitors; AID 720580, 2013; 330,000 tested, 0.46% active; Vaccinia virus Venus reporter expression, fluorescence; active means well fitted inhibition curve with a large enough effect; inconclusive means small, poorly fitted or top-dose-only effect; inactive means no such curve, though single readings can be large or run the other way; tested in A549 cells; also: nearly all actives have a fitted effect of over 30% in size; inactives centre near -10
VACV mCherry inh – qHTS for Stage-Specific Inhibitors of Vaccinia Orthopoxvirus: mCherry Reporter Primary qHTS. Vaccinia virus mCherry reporter infection, fluorescence; about a quarter of the inactives have no number. Potency, µM (doses to about 36.5 µM), for the others: top-dose activity change, negative = inhibition, actives largely listed as inhibitors. 310,000 tested, 0.63% active. AID 720579, 2013; active = well fitted inhibition curve with a large enough effect; inconclusive = small, poorly fitted or top-dose-only effect; inactive = no such curve, though single readings can be large or run the other way; tested in A549 cells; also: nearly all actives have a fitted effect of over 35% in size; inactives centre near -10
Active calls of the source: *; i = inactive; ? = inconclusive; / = not tested or not shown; [ ] = dose if it differs, or a comment. % is scaled to controls: 0 for no effect and ±100 for the full control effect; potency is read from the fitted curve at half-maximal effect.

canonical_smiles	VACV Venus inh	VACV mCherry inh
COc1ccc(-n2nc(C(=O)NCC(=O)Nc3cc(OC)ccc3OC)c3ccccc3c2=O)cc1	-13.4%	-8.8%
CCOC(=O)Cc1nnc(NC(=O)CSc2ccccc2)s1	-9.7%	/
O=C(NCCc1ccccn1)C1CCCN(S(=O)(=O)Cc2ccccc2)C1 (stereo not drawn)	-3.1%	-7.4%
Cc1ccc(N2CCN(C(=O)C(=O)c3cccc(Br)c3)CC2)cc1	-17.9%	?
Cc1cc(C)n(-c2cc(C)c(C)cc2Br)n1	-15.2%	-15.6%
Cc1ccc(C)c(-n2cc(CNCCCn3cccn3)c(-c3ccccc3)n2)c1	-11.0%	-54.5%
CC(c1ccc(F)cc1)n1c(Cn2ncc3ccccc3c2=O)n[nH]c1=S (stereo not drawn)	-7.7%	-3.8%
c1ccc(-c2nnc(CN3CCN(C(c4ccccc4)c4ccccc4)CC3)o2)cc1	-15.7%	-7.3%

canonical_smiles	VACV Venus inh	VACV mCherry inh
Cc1cccc(N2CCN(C(=S)c3ccc4c(c3)OCO4)CC2)c1	-20.7%	?
Cc1sc(NC(=O)c2ccccc2F)c(CN2CCCCC2)c1C	-12.5%	-10.8%
CC1=CC2=C(C=O)C(=O)C(C)(O)C(O)C2=CO1 (stereo not drawn)	?	-18.9%
COc1ccc(CCn2c(=S)[nH]c(=O)c3cccnc32)cc1OC	-29.4%	-16.5%
O=C(CSc1nnc(CNC(=O)c2cccs2)o1)Nc1ccc(Br)cc1	3.2%	-16.9%
Cc1nn(C)c(C)c1/C=C/C(=O)c1cccs1	-11.9%	-8.1%
Cc1c(C)c2ccc(OC(C)C(=O)N3CC[C@@]4(O)CCCC[C@H]4C3)cc2oc1=O (stereo partly drawn)	?	?
COc1ccc(OC)c(-c2csc(NC(=O)Cc3ccc(OC)c(OC)c3)n2)c1	0.0%	7.3%

canonical_smiles	VACV Venus inh	VACV mCherry inh
CCOc1ccc(C(c2nnnn2C(C)(C)C)N2CCN(C(=O)c3ccco3)CC2)cc1 (stereo not drawn)	-12.9%	-3.3%
Cc1ccsc1C(=O)OCC(=O)N1CCN(c2ccccc2)CC1	-7.9%	?
Cc1ccsc1C1Nc2ccccc2-c2nc3ccccc3n21 (stereo not drawn)	-7.8%	-29.2%
O=C1C2ON(c3ccccc3)C(c3ccccc3F)C2C(=O)N1c1ccccc1 (stereo not drawn)	-5.7%	/
O=C(N/N=C\c1cccs1)c1ccccc1-n1cccc1	-0.9%	-3.3%
Cc1ccc(C)c(Cn2nc(C)n3c(cc4cc(C)ccc43)c2=O)c1	-6.9%	-10.8%
O=C(O)/C=C\c1cccc(-n2cnnn2)c1	-6.1%	i
CCc1nccn1CCC(=O)N1CCCC(N2CCN(c3ccccc3C)CC2)C1 (stereo not drawn)	-16.7%	-4.2%

canonical_smiles	VACV Venus inh	VACV mCherry inh
c1ccc2c(c1)[nH]c1nc(SCCN3CCOCC3)nnc12	-11.5%	-5.4%
O=[N+]([O-])c1c2ccccc2cc2ccccc12	-15.3%	-9.2%
O=C(NCCc1c[nH]c2ccccc12)OCCCCOC(=O)NCCc1c[nH]c2ccccc12	?	-27.3%
Cn1c(=O)c(=O)n(C)c2cc([N+](=O)[O-])c([N+](=O)[O-])cc21	-3.3%	9.7%
Cc1nnc(SC(C)C(=O)Nc2ccc(Cl)cn2)n1Cc1ccccc1 (stereo not drawn)	-12.8%	-1.4%
COC(=O)c1cc(OC)c(OC)cc1NC(=S)Nc1cccc(Cl)c1	-4.6%	-16.5%
O=C([C@H]1O[C@@H](n2ccc(=O)[nH]c2=O)[C@H](O)[C@@H]1O)N1CCC(F)(F)CC1	-3.2%	i
O=c1cc(N2CCN(c3ccccc3)CC2)[nH]c(=O)n1Cc1ccc(F)cc1	-10.3%	i

canonical_smiles	VACV Venus inh	VACV mCherry inh
COC(=O)c1cn(NC(=O)c2cnccn2)c(=O)c2ccccc12	-21.7%	?
CCOC(=O)Cc1nn(C(C)C)c(=O)c2ccccc12	-15.4%	-3.2%
O=C(OCc1cn([C@H]2C[C@H](c3ccccc3)N(C(=O)c3cccs3)C[C@@H]2O)nn1)c1ccccc1	-16.2%	-5.9%
CC1(C(=O)NCCC#N)CCN1C(=O)Cc1ccc(-c2ccccc2)cc1 (stereo not drawn)	4.6%	i
CCOC(=O)CC(=O)COc1nc2cc3c(nc2o1)CCCC3	-9.0%	-15.8%
CCOc1ccc(NC(=O)CSc2nnc(NC(=O)Nc3ccccc3)s2)cc1	-10.9%[7.34 µM]	-1.9%[7.34 µM]
CCc1ccc2nc(SCC(=O)N3CC(=O)Nc4ccccc43)c(C#N)cc2c1	?	?
CC1=C(c2ccc(C)cc2)S(=O)(=O)N(Cc2ccc(C(=O)Nc3ccc(F)cc3C)cc2)C1=O	-14.6%	-11.8%

canonical_smiles	VACV Venus inh	VACV mCherry inh
O=c1[nH]c2cc3c(cc2cc1CN(Cc1cccnc1)C(=S)NCc1ccco1)OCCO3	-22.3%	i
CCCCNC(=O)/C(=C/c1ccccc1)NC(C)=O	-4.7%	-8.0%
O=C(NCc1ccc(Cl)cc1)C(=O)Nc1nccs1	5.2%	3.8%
CC(C)Sc1nsc2nc(=O)c(/C=C3\C=Nc4ccccc43)c(N)n12	2.5%[7.34 µM]	-9.3%[7.34 µM]
COC(=O)C1=C(c2ccc(S(C)(=O)=O)cc2)C[C@@H]2CC[C@H]1N2C(=O)NCCO	1.5%	i
NC(=S)NN=C1CCCC(C(F)(F)F)C1 (stereo not drawn)	?	10µM*
CCOc1cccc(-c2c(C(=O)N/N=C/c3ccco3)nnn2-c2nonc2N)c1	8.3%	i
CCCCC1S/C(=N/N=C/c2cccs2)NC1=O (stereo not drawn)	-1.3%	-7.1%

canonical_smiles	VACV Venus inh	VACV mCherry inh
COC(=O)c1ccc(CNC(=O)CNC(=O)c2sc3ccccc3c2Cl)cc1	1.2%	i
Cc1csc(N(C(=O)c2cccc(S(=O)(=O)N3CCCC3)c2)c2ccccc2)n1	-20.0%	/
COc1ccc(NC(=O)CSC2=C(C#N)C(c3ccco3)C3=C(CCCC3=O)N2)c(OC)c1 (stereo not drawn)	8.4%	8.5%
COc1ccc(N2CCN(S(=O)(=O)c3ccc(-c4ccno4)cc3OC)CC2)cc1	-21.7%	-21.1%
COc1ccc(C(=O)COc2ccccc2C(N)=O)cc1	-9.2%	-0.1%
CCOc1ccc(NC(=O)c2cccc(OC(=S)N3CCOCC3)c2)cc1	-17.1%	-16.3%
CCOc1ccc(/C=N/n2cc(-c3ccccc3)[nH]c2=S)cc1	?	?
Cc1c(C(=O)O)sc2nc(CSc3ncc(C(F)(F)F)cc3Cl)[nH]c(=O)c12	-7.8%	i

canonical_smiles	VACV Venus inh	VACV mCherry inh
O=C(NC1CCCCC1)c1cccnc1Sc1ccccc1Cl	2.6%	-1.4%
O=C(Nc1cccnc1)Nc1ccccn1	-11.1%	-21.1%
NC(=O)c1ccc(SCC(=O)OCC(=O)N2CCN(C(=O)c3ccco3)CC2)c([N+](=O)[O-])c1	-14.8%	i
COC(=O)c1cc(C(=O)Nc2cc(C)on2)cc([N+](=O)[O-])c1	-0.8%	-11.8%
Cc1c(C(=O)NCc2ccccc2)sc2nc3n(c(=O)c12)CCC3	-2.0%	-15.8%
CCCCn1nnnc1C(c1cc2ccccc2o1)N1CCN(C/C=C/c2ccccc2)CC1 (stereo not drawn)	-7.7%	0.8%
Cc1ccc(OCCC(=O)OC(C)C(=O)Nc2ccc(Cl)cn2)cc1 (stereo not drawn)	1.0%	-8.9%
CCc1ccc(CN(C)CC(O)COc2cccc3ccccc23)cc1 (stereo not drawn)	-15.4%	-20.0%

canonical_smiles	VACV Venus inh	VACV mCherry inh
O=c1cc(-c2ccccc2)[nH]n1-c1ccccc1	-8.6%	?
COc1ccc(Nc2cc3n(c(=O)n2)CCc2cc(OC)c(OC)cc2-3)c(C)c1	-25.1%	?
O=Cc1cn(Cc2cccc(F)c2)c2ccccc12	-17.0%	i
COc1ccc2c(C)cc(SCC(=O)Nc3nsc(-c4ccc(C)cc4)n3)nc2c1	5.2%	-2.1%
Cc1ccc(NC(=O)c2c(C(=O)Nc3ccccc3)sc3nc(C)cc(=O)n23)c(C)c1	-20.0%	-22.4%
Cc1ccc(-c2nc(N(C)C3CCN(C)CC3)c3ccccc3n2)cc1	?	-2.5%
COc1ccc(Nc2c(-c3ccc(C)o3)nc3ccccn23)cc1	-9.0%	i
Cc1cccnc1CN1CCN(C(=O)c2cc(COc3ccc4ncccc4c3)on2)CC1	-26.0%	?

canonical_smiles	VACV Venus inh	VACV mCherry inh
O=C(COC(=O)c1n[nH]c2ccccc12)Nc1cccc(S(=O)(=O)N2CCOCC2)c1	-17.5%	-24.3%
CCc1cc(=O)oc2cc(C)cc(OC(C)C(=O)NCCCn3ccnc3)c12 (stereo not drawn)	-10.7%	-8.4%
CC(C)S(=O)(=O)c1oc(-c2ccc(F)cc2)nc1S(=O)(=O)c1ccc(F)cc1	-13.0%[7.34 µM]	-16.0%[7.34 µM]
COc1ccc([N+](=O)[O-])cc1NC(c1nnc(-c2ccccc2)o1)c1ccccc1F (stereo not drawn)	-6.6%	-16.2%
Cc1ccc(NC(=O)CSc2nnc(N)s2)cc1S(=O)(=O)N1CCOCC1	-3.8%	-15.1%
O=C(Cn1nc(C(F)F)cc1C1CC1)NCCC1=CCCCC1	-5.6%	i
COc1ccc(-n2cc3c(c2-c2cccc(Br)c2)c(=O)n(C)c(=O)n3C)cc1OC	-4.7%	-21.3%
O=C(COC(=O)c1ccc(S(=O)(=O)N2CCCCCC2)cc1)NCc1ccc(F)cc1	-11.3%	-1.9%

Reformatted with values under each structure: entries from further up.
Each structure is followed by: VACV Venus inh, VACV mCherry inh
O=C(COC(=O)c1n[nH]c2ccccc12)Nc1cccc(S(=O)(=O)N2CCOCC2)c1
 : -17.5%, -24.3%
CCc1cc(=O)oc2cc(C)cc(OC(C)C(=O)NCCCn3ccnc3)c12 (stereo not drawn)
 : -10.7%, -8.4%
CC(C)S(=O)(=O)c1oc(-c2ccc(F)cc2)nc1S(=O)(=O)c1ccc(F)cc1
 : -13.0%[7.34 µM], -16.0%[7.34 µM]
COc1ccc([N+](=O)[O-])cc1NC(c1nnc(-c2ccccc2)o1)c1ccccc1F (stereo not drawn)
 : -6.6%, -16.2%
Cc1ccc(NC(=O)CSc2nnc(N)s2)cc1S(=O)(=O)N1CCOCC1
 : -3.8%, -15.1%
O=C(Cn1nc(C(F)F)cc1C1CC1)NCCC1=CCCCC1
 : -5.6%, i
COc1ccc(-n2cc3c(c2-c2cccc(Br)c2)c(=O)n(C)c(=O)n3C)cc1OC
 : -4.7%, -21.3%

The list continues:
canonical_smiles	VACV Venus inh	VACV mCherry inh
CC(C)(C)OC(=O)CNC(=O)c1nc[nH]c1C(=O)N1CCN(c2ccccc2)CC1	-8.0%	-0.2%
O=C(CSc1nc2ncc(Cl)cc2[nH]1)N(Cc1ccccc1)C1CCS(=O)(=O)C1 (stereo not drawn)	-17.2%	-6.2%
CC(N)[C@H](O)c1ccccc1 (stereo partly drawn)	-1.1%	2.2%
CCOC(=O)CSc1nc2ccccc2c(=O)n1CCc1ccc(OC)c(OC)c1	2.9%	2.3%
Cc1ccc2c(c1)cc(C(=O)Nc1ccccc1C)n2C	?	?
O=S(=O)(Nc1cccc2cccnc12)c1ccccc1	12.6µM*	10µM*
COc1ccc(C(C)=O)cc1COC(=O)c1ccc(OCc2c(C)noc2C)cc1	-5.2%	-7.0%
CCOC(=O)C(=Cc1cn(C)c2ccc(S(=O)(=O)N(C)C)cc12)C(=O)OCC	-10.5%	-28.5%

canonical_smiles	VACV Venus inh	VACV mCherry inh
CCOC(=O)c1ccc(NC2c3ccccc3C(=O)N2c2ccccn2)cc1 (stereo not drawn)	-14.7%	-16.8%
COc1cc(CNc2ncnc3c2ncn3[C@H]2CN(Cc3cccs3)C[C@@H](CO)O2)cc(OC)c1OC	-6.6%	i
COc1cccc(-c2coc3c(C)c4oc(=O)c(CCC(=O)O)c(C)c4cc23)c1	-11.2%	?
Cc1noc(-c2ccccc2OCC(=O)Nc2cccc([N+](=O)[O-])c2)n1	-19.7%	-12.5%
CN(C(=O)c1cccc(S(=O)(=O)N2CCCCC2)c1)C1CCS(=O)(=O)C1 (stereo not drawn)	-9.1%	-14.9%
CCC(=O)N[C@@H]1c2ccccc2C2(CCN(Cc3[nH]c4c(Cl)cccc4c3C)CC2)[C@H]1OC	-8.6%	-7.2%
CCCNC(=O)C1=CC(c2ccc3c(c2)OCO3)=NS(=O)(=O)N1C	-9.8%	-10.0%
O=C1CCN(S(=O)(=O)c2ccc(Br)cc2)CCN1	3.6%	-0.3%

canonical_smiles	VACV Venus inh	VACV mCherry inh
COc1ccccc1CNC(=O)C1CCCN(S(=O)(=O)c2cccs2)C1 (stereo not drawn)	-8.2%	i
COc1ccc(C)cc1N(CC(=O)N1CCCCCC1)S(C)(=O)=O	-8.9%	-18.4%
C/C(=N\Nc1ncnc2sc(C)c(C)c12)c1ccccn1	-21.3%	5.01µM*
COc1ccc(N(C(=O)Cc2cccs2)C2C=CS(=O)(=O)C2)cc1 (stereo not drawn)	7.8%	-9.6%
O=C(CNC1CCCCCC1)c1cccs1	-11.7%	-14.6%
CCN(C(=O)c1cccs1)c1nc(-c2ccc(OC)cc2)cs1	-4.8%	?
C[C@]12CCC(=O)C=C1CCC1C2C(O)C[C@]2(C)C1CC[C@]2(O)C(=O)CO (stereo partly drawn)	-28.3%	-3.8%
CC(C)(C)[C@H]1C=C(C(=O)O)O[C@@H](OCCCCO)C1	-8.1%	-6.9%
COc1cc(C(=O)NC(=S)Nc2ccc3c(c2)OCO3)cc(OC)c1OC	-19.3%	-3.0%

Source: PubChem BioAssay
